From PubChem BioAssay
ALR inh = inhibitors of human sulfhydryl oxidase ALR; P55789; purified ALR, DTT oxidation, H2O2 HRP-luminol luminescence; inhibition, % (no concentration beside the values); 3.8% of 290,000 active;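 active = mean and each replicate at 75% or more; inconclusive = only one of the two met; inactive = neither met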;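 also: stock transfer was 7.5 nL into about 7.5 µL; 0% = neutral wells and 100% = wells with inactivated enzyme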
HNF4A DNA FP = change in binding of human HNF4 alpha to DNA; P41235; HNF4a-FITC DNA binding, fluorescence polarization, 1 h; activity change, % at 10 µM; 0.3% of 360,000 active; in the data active = activity change above about 30%, passing the limit was not always enough;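 also: controls were the assay level and a saturating level of protein; the project sought stronger binding though the title names inhibitors; some compounds called inactive have numbers as strong as hits; positive values seem to mean higher polarization but the record does not say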
B2AR ag = human beta-2 adrenergic receptor agonism by FAP; P07550; Am2.2-beta2AR cells, FAP receptor internalization, flow cytometry; reference of the scale not given here; response, % (test concentration not listed); 0.43% of 340,000 active;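 active = response above a set limit, near 3 SD of response in nonfluorescent compounds, cut at about 42% in these data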;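 also: stock transfer was 100 nL into about 11 µL; a reference agonist was the positive control; negative values mostly stem from fluorescent compounds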
UCH37 inh = human UCH37 deubiquitinating enzyme inhibition; 0.33% of 330,000 active; inhibition, % (concentration not given with the values); purified proteasome/UCH37, Ub-AMC cleavage fluorescence;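 active = mean of two replicates above 20%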;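 also: 0% = compound-free wells with enzyme and 100% = wells lacking proteasome; stock transfer was 100 nL into about 20 µL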
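assay system = human UCH37 enzyme supplied as purified proteasome complex | amount = proteasome at 0.15 nM in the dispensed enzyme solution | schedule = 30 min compound-proteasome preincubation then 25 min substrate reaction, room temperature | measured by = fluorescence, ex 355 nm, em 460 nm | benchmarks = no-proteasome wells (full inhibition) and compound-free wells (no inhibition)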
LANA-H2A inh = blocks KSHV LANA binding to histone H2A/H2B. 0.6% of 320,000 active. Q9QR71. inhibition, % (no concentration beside the values). cell-free LANA-H2A/H2B peptide, fluorescence polarization; in the data active = inhibition mostly above about 10%, no sharp cut-off; inactive = mostly below about 6.7%;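 also: stock transfer was 7.5 nL into about 10 µL; 0% = median of vehicle wells and 100% = median of positive control wells; one replicate is shown; the record names a cut of 25% in any replicate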
Target sequence (Q9QR71 whole entry, looked up): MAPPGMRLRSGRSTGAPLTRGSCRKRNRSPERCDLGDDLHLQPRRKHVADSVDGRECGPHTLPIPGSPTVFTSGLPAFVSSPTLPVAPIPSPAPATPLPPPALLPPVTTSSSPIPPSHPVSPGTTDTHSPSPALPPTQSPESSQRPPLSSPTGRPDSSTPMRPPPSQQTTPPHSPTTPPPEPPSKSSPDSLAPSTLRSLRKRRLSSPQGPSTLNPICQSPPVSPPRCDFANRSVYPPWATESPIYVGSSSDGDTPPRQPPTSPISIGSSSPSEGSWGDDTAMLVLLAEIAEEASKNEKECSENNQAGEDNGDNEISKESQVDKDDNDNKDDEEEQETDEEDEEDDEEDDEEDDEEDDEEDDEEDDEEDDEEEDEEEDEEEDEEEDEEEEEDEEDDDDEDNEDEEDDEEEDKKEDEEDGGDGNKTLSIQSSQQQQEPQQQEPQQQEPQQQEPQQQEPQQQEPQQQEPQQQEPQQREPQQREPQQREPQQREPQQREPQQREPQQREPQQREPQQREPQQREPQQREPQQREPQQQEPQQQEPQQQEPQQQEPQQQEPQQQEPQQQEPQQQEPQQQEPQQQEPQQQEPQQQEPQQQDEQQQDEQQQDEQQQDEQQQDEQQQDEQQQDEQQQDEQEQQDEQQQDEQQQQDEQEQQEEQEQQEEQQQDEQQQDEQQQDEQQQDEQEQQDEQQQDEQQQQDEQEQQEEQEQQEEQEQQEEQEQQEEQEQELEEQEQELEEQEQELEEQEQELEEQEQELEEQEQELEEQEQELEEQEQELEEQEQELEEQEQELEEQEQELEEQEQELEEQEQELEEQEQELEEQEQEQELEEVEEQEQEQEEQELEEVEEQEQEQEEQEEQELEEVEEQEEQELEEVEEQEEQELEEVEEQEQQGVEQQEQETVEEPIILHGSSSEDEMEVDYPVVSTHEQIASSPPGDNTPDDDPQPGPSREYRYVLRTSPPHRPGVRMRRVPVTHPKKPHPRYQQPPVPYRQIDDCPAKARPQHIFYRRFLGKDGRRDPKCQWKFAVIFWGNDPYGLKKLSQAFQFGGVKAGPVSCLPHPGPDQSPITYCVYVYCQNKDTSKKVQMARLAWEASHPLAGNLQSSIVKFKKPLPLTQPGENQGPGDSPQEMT
FGF22 binding = FGF22 (human) thermal shift binding; Q9HCT0; recombinant FGF22 thermal shift, SYPRO orange fluorescence; percent of sucrose octasulfate shift, DMSO zero; calls only at 9.99 µM; 1.5% of 340,000 active; AID 651658;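 active = melting point raised past a set limit in the mean and every replicate; inconclusive = no clear call; three in four hits are not shown here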
E coli growth = inhibitors of Escherichia coli growth; OD600, 23 h; hits give low values; OD600 absorbance (test concentration not listed); 0.21% of 330,000 active; AID 1053175;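 active = OD600 absorbance below the run mean of sample wells minus 3.6 SD, in any replicate, cut at about 0.56 in these data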;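 also: stock transfer was 300 nL into about 60 µL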
* marks the source's active call; other numbers are inactive results; i = inactive; u = inconclusive; x = no result given. A portion of the library; rates above refer to the full screens.

SMILES	ALR inh	HNF4A DNA FP	B2AR ag	UCH37 inh	LANA-H2A inh	FGF22 binding	E coli growth
CCN(CC)CCN(C(=O)c1ccc(Br)s1)c1nc2cc3c(cc2s1)OCO3	19	0.1	5	-15	-3.8	i	0.67
CSc1n[nH]c(NC(=O)c2c(-c3c(Cl)cccc3Cl)noc2C)n1	-1	2.6	1	2.6	-0.7	i	0.64
O=C1CCC(C(=O)NCCCn2ccnc2)N1 (centres undefined)	-10	-1.3	2	1.4	-4.7	x	0.69
CC1CC(C)(C)NCCNC(C)CC(C)(C)NCCN1 (centres undefined)	-14	0.5	-4	6.6	3.0	x	0.73
CCCCc1[nH]c(=O)c(C#N)c2c1CSC(C)(C)C2	-7	0.9	0	-31	-3.0	x	0.7
CCOc1ccc(NC(=O)N2CCN(Cc3ccc4c(c3)OCO4)CC2)cc1	-5	-6.6	-5	-0.3	-5.5	i	0.64
CCOC(=O)NNc1cc(C(F)(F)F)ccn1	-6	2.1	9	0.5	-2.0	i	0.68
Cc1cccc(/C=C2/Sc3ccc(C(=O)NCCCN4CCOCC4)cc3NC2=O)c1	2	-1.9	19	x	-2.4	i	x
O=C(CN1C(=O)NC2(CCc3ccccc32)C1=O)c1c[nH]c2ccccc12 (centres undefined)	-9	2.5	2	0.8	-1.7	i	0.69
Cc1cc(C(=O)N2CCCC(N3CCN(c4ccc(F)cc4)CC3)C2)no1 (centres undefined)	54	2.1	0	-0.5	-1.2	i	0.67
O=C(O)/C=C/C(=O)N1CCN(c2ccc(F)cc2)CC1	7	-12	2	-1.5	2.7	x	0.68
Cc1nc(-c2ccccc2O)n(S(=O)(=O)N(C)C)n1	4	0.0	2	3.2	-3.5	x	0.68
FC(F)(F)c1cc(-c2ccco2)nc(NCc2ccccc2)n1	98*	5.6	2	-9.8	5.8	x	0.7
Cc1ccc2c(c1)C1CN(C)CCC1N2C(=S)Nc1ccc(Cl)cc1Cl (centres undefined)	27	2.2	3	6.4	3.1	x	0.69
O=C(Nc1ccc(S(=O)(=O)NC2=NCCCCC2)cc1)c1ccco1	4	1.4	-3	-2.9	3.9	i	0.72
CCOc1ccc(NC(=O)N(C2CCCC2)C2CCN(C(C)=O)CC2)cc1	-7	0.0	2	0.8	5.1	i	0.7
CCCn1c(SCC(=O)Nc2cccc(C)n2)nnc1-c1ccco1	2	-3.7	-10	2.4	-3.9	x	0.73
CCOC(=O)c1csc(-c2ccc(OC)c(OC)c2)n1	-24	-2.2	3	2.2	-8.4	i	0.68
COC(=O)c1ccc(OC(=O)c2cccnc2SC)cc1	x	-1.6	-14	1.0	-1.2	i	0.67
CSc1ncccc1C(=O)OCc1ccccc1F	-6	-2.7	-8	0.2	-3.6	x	0.75
COc1cc2cc(CCCOC(=O)CCCC(=O)O)oc(=O)c2cc1OC	-7	4.7	-8	0.6	0.0	i	0.7
COC(=O)c1ccncc1C(=O)Nc1ccc(F)cc1	-4	-0.1	-2	-0.4	-5.3	x	0.69
COc1cc(OC)cc(-c2nnc(SCc3ccc(C(=O)O)cc3)o2)c1	-6	-1.6	7	1.1	3.7	i	0.64
O=C1c2ccccc2/C(=C\c2ccc(Br)s2)N1c1ccccc1	2	20	7	-1.9	-0.1	i	x
O=C1NC(=S)N/C1=C/c1cccn1-c1ccc([N+](=O)[O-])cc1	51	-9.2	-2	6.4	0.3	i	x
CN1CCN(S(=O)(=O)c2ccc(N(C)Cc3c(F)cccc3Cl)nc2)CC1	-1	-0.9	-2	2.7	7.7	i	0.65
COc1ccccc1/C=C/C(=O)N1CCc2cc(OC)c(OC)cc2C1C (centres undefined)	-9	2.2	-8	3.2	1.0	i	0.69
O=C(COC(=O)c1ccc(Br)cc1)Nc1ccccc1Br	3	0.5	-1	-1.2	0.5	x	0.69
Oc1ccccc1-c1csc(-c2ccccc2)n1	-1	-1.0	4	0.5	-0.3	x	0.66
S=C1NCCc2ccccc2C1c1ccccc1Cl (centres undefined)	10	-2.3	-4	-0.7	-1.7	x	0.68
O=C(CNc1ccc(Br)cc1)c1ccccc1	-2	-2.3	5	2.9	2.0	x	0.74
O=C(Cc1ccccc1Cl)NC1(O)C(=O)c2ccccc2C1=O	9	5.1	5	x	-8.6	i	x
COCCCNc1nc2c(-c3cccc(C)c3)nnn2c2ccccc12	-3	2.2	-10	-150	-6.1	i	0.83
O=C1c2cccc3cccc(c23)C(=O)N1CCN1CCN(CC(O)COCc2ccc(Cl)cc2)CC1 (centres undefined)	-85	-4.4	26	-2.9	-0.3	x	0.66
CC(C)Cn1c(N)c(C(=O)CCl)c(=O)n(C)c1=O	98*	4.2	9	1.2	0.6	i	0.66
Fc1ccc(N2CCN(C(=S)NCC3CCCO3)CC2)cc1 (centres undefined)	99*	-1.7	-6	2.4	1.4	i	0.66
Cc1cc(C(=O)CN2C(=O)NC(c3ccccc3)(c3ccccc3)C2=O)c(C)n1Cc1ccco1	x	-0.2	5	0.7	-1.2	x	0.75
CC1CC(C)CN(CC(=O)NC(c2ccccc2)c2ccccc2)C1 (centres undefined)	x	1.4	5	2.2	-6.1	i	0.7
Cc1ccsc1/C=N/NC(=O)c1ccc(Cn2cc(Br)cn2)o1	-6	5.1	-3	x	-7.6	x	x
CCc1ccccc1NC(=O)C1COc2ccccc2O1 (centres undefined)	x	-1.7	-6	2.5	-2.5	i	0.67
O=C(NC1CCSc2ccccc21)c1ccccc1Br (centres undefined)	-2	3.6	7	1.5	1.8	i	0.71
Oc1ccc2ccccc2c1N=Nc1ccccc1F	-22	4.1	4	2.4	-5.5	i	0.71
CC(=O)c1c(OC(=O)c2ccco2)c2ccccc2n1C	41	-0.6	-5	-3.3	-1.8	x	0.71
O=C(Cc1ccc(Cl)c(Cl)c1)OCC(=O)c1ccc[nH]1	x	9.7	3	-0.2	-1.5	x	0.71
CCc1ccc(S(=O)(=O)N(C(=O)c2ccncc2)c2ccc(OC(=O)c3ccncc3)cc2)cc1	10	0.6	-3	0.5	1.1	x	0.68
O=C(Nc1ccc(F)cc1)N1CCc2ccccc2C1	-5	1.3	-1	1.9	-0.7	i	0.64
Brc1ccc(/C=N/Nc2ccccn2)cc1	-21	-0.4	-6	x	4.6	i	x
Cc1ccc(C)c(CN2CCCN(Cc3cc(C)ccc3C)S2(=O)=O)c1	x	-1.6	0	-2.2	-2.3	i	0.7
CSc1nc(N)nc2c1ncn2CC(=O)Nc1ccc(C)c(C)c1	-2	2.1	-6	2.2	x	i	0.63
O=C(Nc1ccc2nc(-c3cccnc3)[nH]c2c1)c1ccccc1F	-4	-1.7	-2	1.0	-5.2	x	0.68
OCC1(Cc2ccccc2)CCCN(Cc2ccc3c(c2)OCCO3)C1 (centres undefined)	-29	2.5	11	2.8	1.5	i	0.72
COc1ccccc1C(CNc1ncnc2sc(C)c(C)c12)N(C)C (centres undefined)	1	7.4	-7	3.0	1.1	i	0.66
CC(C)CCNC(=O)CN(Cc1ccc2c(c1)OCO2)C(=O)Cn1nnc(-c2cccs2)n1	3	-0.3	-3	3.7	-1.3	x	0.71
O=C(C(Cl)c1ccccc1)N1CCOCC1 (centres undefined)	20	1.6	1	-0.1	-5.5	i	0.67
CCC1CCCCN1C(=O)N[C@@H](CCSC)C(=O)OC (some centres undefined)	-16	-1.6	19	-0.4	0.7	x	x
CCN(C[C@H]1N[C@@](Cc2ccccc2)(C(=O)OC)[C@H]2C(=O)N(Cc3ccccc3)C(=O)[C@@H]12)S(=O)(=O)c1ccc(OC)cc1	x	-0.6	0	4.6	-2.8	i	0.74
C=CCOc1ccc(C2c3c(oc4ccccc4c3=O)C(=O)N2CCCN2CCOCC2)cc1 (centres undefined)	1	1.8	-11	2.2	3.7	x	0.69
COc1ccc(C(=O)Nc2cnc3ccccn3c2=O)cc1	0	-3.8	-3	-5.5	3.3	i	0.68
C[C@H](NC(=O)CCn1nnc2ccccc2c1=O)C(=O)O	1	-0.1	0	0.8	-1.7	i	0.65
CCOc1ccc(C(=O)Oc2cc(C)[nH]c(=O)c2[N+](=O)[O-])cc1OCC	1	2.6	4	2.5	0.3	i	0.7
The results go on.
SMILES	ALR inh	HNF4A DNA FP	B2AR ag	UCH37 inh	LANA-H2A inh	FGF22 binding	E coli growth
CCOC(=O)c1cc(=O)n2nc(-c3ccc(C)cc3)nc2s1	x	-4.2	5	-1.6	-0.5	x	0.72
Cn1c(=O)cc(OCCCC(=O)N2CCN(Cc3ccc4c(c3)OCO4)CC2)c2ccccc21	-18	-0.7	-5	5.1	11	x	0.72
CCCS(=O)(=O)N1CCC(C(=O)N2CCN(Cc3ccccc3)CC2)CC1	-5	0.3	-3	2.7	-3.7	x	0.68
Cc1cc(C(=O)N/N=C/C=C/c2ccc3c(c2)OCO3)n[nH]1	0	1.6	2	x	-2.0	x	x
CCOc1ccc(NS(=O)(=O)c2ccc(C(=O)NCc3cccnc3)cc2)cc1	4	3.6	-4	-0.9	2.8	i	0.6
CC1CCCN(CCCNC(=O)c2ccc(CS(=O)(=O)c3c(Cl)cccc3Cl)o2)C1 (centres undefined)	-8	-1.1	2	0.8	-0.5	i	0.65
CCc1nnc(N/N=C/c2ccccc2Cl)n1N	0	1.0	0	x	-0.7	x	x
CC(=O)Nc1c(O)nc(SCC(=O)N2CCN(c3ccc(F)cc3)CC2)[nH]c1=O	u	0.2	-2	5.8	6.7	x	0.7
CCOC(=O)c1c(NC(=O)CC2Sc3ccc(C(F)(F)F)cc3NC2=O)sc(C)c1C (centres undefined)	-8	2.2	-2	-1.1	1.1	i	0.68
COc1ccc(C2C(C#N)=C(N)OC3=C2C(=O)CC(C)(C)C3)c(OC)c1OC (centres undefined)	4	-1.2	-10	0.3	-0.6	x	0.67
COc1cc(/C=N/n2cnn(Cc3ccccc3Cl)c2=S)cc(OC)c1OC	-3	2.3	2	x	1.0	i	x
O=[N+]([O-])c1ccc(Nc2nc(N/N=C\c3ccc4c(c3)OCO4)nc(N3CCCCC3)n2)cc1	x	0.8	2	x	-2.5	x	x
CCOc1ccc(NC(=O)/C(C#N)=C\c2ccc(N3CCCC3)c(C)c2)cc1	x	98	-17	8.7	x	i	0.74
Cc1nn(CC(=O)Nc2cc(S(=O)(=O)N(C)C)ccc2Cl)c(C)c1[N+](=O)[O-]	x	-0.3	-7	2.7	1.5	x	0.68
O=C(NC(Cc1ccccc1)C(=O)N1CCc2ccccc2C1)c1ccccc1 (centres undefined)	x	1.1	3	1.4	-1.5	i	0.67
CC1CCCN(C(=O)CNC(=O)Cn2ccc3ccccc3c2=O)C1 (centres undefined)	-1	-2.7	1	3.6	-3.1	i	0.73
COc1ccc(-c2cc(=O)c3cc(O)ccc3o2)cc1	-3	-0.4	-2	x	-4.9	i	x
COc1cccc(N2CCN(S(=O)(=O)c3c(C)[nH]c(C)c3C(=O)N3CCCC3)CC2)c1	73	3.7	0	2.4	4.3	i	0.67
Cn1cc(Cl)c(C(=O)N(Cc2ccccc2)c2ccccn2)n1	0	-1.8	-1	6.0	3.4	i	0.77
